Mtb betalactam = beta-lactam sensitization of Mtb H37Rv, H37Rv; 330,000 tested, 0.27% active; M. tuberculosis H37Rv growth with meropenem, percent inhibition; hits of this screen are not shown here; AID 434955, 2010; inhibition, % at 25 µM;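 active = about 74% or more and at least 40 points above the plate without the antibiotic, then above 30% in a dose series; inconclusive = first-round hits that could not be retested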;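 note: growth measured after seven days incubation then overnight dye step; 0% = bacteria only wells and 100% = bacteria with antibiotic; twin plates without the antibiotic show which effects depend on it; some results filed as inactive read as strong as hits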
RecA splice inh = Mtb RecA intein splicing inhibitors, primary screen, biochemical, fluorescence, HTS | Protein RecA (Mycobacterium tuberculosis (strain ATCC 25618 / H37Rv)), P9WHJ3 | cell-free RecA intein splicing | inhibition, %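 (about 9 µM by stock and volumes)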 | 290,000 tested, 0.75% active; in the data active = inhibition above about 30%; inconclusive = no clear call, values can overlap the other calls;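 note: 0% = vehicle wells and 100% = reference inhibitor control wells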
Target sequence (P9WHJ3 whole entry, looked up, canonical isoform): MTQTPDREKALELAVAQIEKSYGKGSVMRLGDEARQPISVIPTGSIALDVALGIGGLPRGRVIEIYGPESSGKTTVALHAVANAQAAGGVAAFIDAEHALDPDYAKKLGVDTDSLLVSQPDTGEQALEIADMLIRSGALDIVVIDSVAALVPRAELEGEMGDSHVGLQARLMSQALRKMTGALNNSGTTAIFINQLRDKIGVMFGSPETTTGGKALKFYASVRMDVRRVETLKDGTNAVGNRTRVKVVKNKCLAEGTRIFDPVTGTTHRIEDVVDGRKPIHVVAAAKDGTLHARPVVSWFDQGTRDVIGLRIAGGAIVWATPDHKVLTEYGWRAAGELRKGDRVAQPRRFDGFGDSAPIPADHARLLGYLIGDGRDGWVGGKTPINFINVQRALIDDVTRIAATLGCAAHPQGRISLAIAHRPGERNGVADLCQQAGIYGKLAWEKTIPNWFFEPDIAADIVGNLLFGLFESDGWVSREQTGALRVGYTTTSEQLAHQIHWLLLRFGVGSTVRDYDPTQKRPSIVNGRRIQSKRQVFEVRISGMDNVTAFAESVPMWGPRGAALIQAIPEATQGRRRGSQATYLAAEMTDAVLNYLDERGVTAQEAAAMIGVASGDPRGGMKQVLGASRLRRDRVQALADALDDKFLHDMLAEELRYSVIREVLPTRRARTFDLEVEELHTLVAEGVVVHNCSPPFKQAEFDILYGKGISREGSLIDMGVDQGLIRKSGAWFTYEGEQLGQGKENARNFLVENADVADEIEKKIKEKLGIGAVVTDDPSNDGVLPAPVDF
YopH inh = YopH tyrosine phosphatase inhibitors, primary screen, biochemical, fluorescence Ex485/Em525; YopH tyrosine phosphatase [Yersinia enterocolitica]; inhibition, %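 (about 10 µM by stock and volumes)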; 140,000 tested, 0.16% active; AID 898, 2007;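 active = inhibition of 50% or more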;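 note: controls were vehicle for no effect and minimum signal wells for full effect; inactives centre near -20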
Mtb growth = M. tuberculosis H37Rv growth inhibitors, H37Rv strain (AID 1626). M. tuberculosis H37Rv growth inhibition; higher % means a stronger effect. 220,000 tested, 0.95% active. one-dose inhibition, % at 10 µM; IC50 in µM for titrated hits;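 active = confirmed in a dose series; inconclusive = inhibition above 80% but not taken into the dose series; inactive = below 80% or under 30% at every dose of the series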;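 note: bacteria incubated seven days before Alamar blue readout; 0% = bacteria only wells and 100% = bacteria with antibiotic wells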
Arbovirus anti = antivirals against arbovirus infection, primary screen, cell-based, full library, 10K replicate subset; arbovirus infection cell-based antiviral screen; inhibition, % at 10 µM; 200,000 tested, 0.37% active;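 active = inhibition from about 30%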;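 note: bluetongue infection of BSR cells; cell survival read as ATP light after 72 h; 0% = infected wells without compound and 100% = uninfected wells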
Arbovirus anti repeat = also measured in Arbovirus anti; calls as there; inhibition, %; measured here: 10K subset replicate screen; many hits read low in the repeat;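 first of two repeat runs on a subset; 0% = infected and 100% = uninfected wells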
Starred values were filed as active, the others as inactive; i = inactive; u = inconclusive; x = no result given. Some of the compounds tested; count on the stated rates, not on these rows.

The opening 2 entries as a preview:
SMILES	Mtb betalactam	RecA splice inh	YopH inh	Mtb growth	Arbovirus anti	others
CCOc1cc(CNCC2CCCO2)cc(Br)c1OCC(N)=O (centres undefined)	-12	-1.1	-58	-1%	-7
CCN(c1ccccc1)S(=O)(=O)c1ccc(Cl)c(NC(=O)COC(=O)c2ccc(O)cc2)c1	-1	4.1	-32	4%	-2

Results, from the first entry:
SMILES	Mtb betalactam	RecA splice inh	YopH inh	Mtb growth	Arbovirus anti	others
CCOc1cc(CNCC2CCCO2)cc(Br)c1OCC(N)=O (centres undefined)	-12	-1.1	-58	-1%	-7
CCN(c1ccccc1)S(=O)(=O)c1ccc(Cl)c(NC(=O)COC(=O)c2ccc(O)cc2)c1	-1	4.1	-32	4%	-2
CC1CCC2(CC1)SCC(=O)N2c1ccccc1 (centres undefined)	-9	1.8	-2	-12%	-3
O=C(N/N=C/c1ccccc1C(=O)O)c1cccc(S(=O)(=O)Nc2cc(Cl)ccc2Cl)c1	-3	5.8	x	-5%	x
COc1ccc(N2CCN(C(=S)Nc3ccc(C)cc3C)CC2)cc1	5	-7.5	x	-2%	-2
C[C@H]1CCC[C@]2(O[C@@H](CCO)C[C@@H](O)[C@@H]2O)O1	-10	-0.5	x	-7%	x
CC(C)NC(=O)NC(=O)CSc1nnc(COc2ccccc2F)n1C(C)C1CC2CCC1C2 (centres undefined)	7	x	-45	20%	-32
O=S(=O)(NC(=S)Nc1ccccc1)c1ccc(F)cc1	-10	1.5	x	-5%	x
COc1ccccc1N1CCN(C2CCCN(Cc3ccccc3OCCO)C2)CC1 (centres undefined)	-5	0.8	x	x	x
O=C(c1ccccc1)N1CCN(c2ccc(NCc3ccc4c(c3)OCO4)cc2)CC1	1	1.5	-8	9%	-27	Arbovirus anti repeat=-27
Cc1ccc(S(=O)(=O)N2CCN(C(=O)c3ccnn3C)CC2)cc1C	-4	-3.4	x	x	x
CSC1=NS(=O)(=O)c2c(C)nn(C)c2S1	-5	-3.0	x	x	x
CC(C)(C)OC(=O)NNc1c2ccccc2nc2ccccc12	98	-31	x	x	x
COc1ccc(-c2cc(C)no2)cc1S(=O)(=O)N1CCCN(Cc2ccccc2Cl)C1	-1	-3.9	x	x	x
Cc1ccccc1C(O)c1ccncc1 (centres undefined)	-4	1.6	-20	0%	-7
Cc1ccc(C)c(Cn2c(=O)n(CCCC(=O)NCc3ccco3)c(=O)c3ccccc32)c1	10	-3.8	0	1%	-17
O=C(/C=C/c1ccc2ccccc2n1)N1CCN(S(=O)(=O)c2ccc(F)cc2)CC1	-6	4.0	x	6%	x
O=C(CN(C(=O)c1csnn1)c1cccc2ccccc12)NCc1ccccc1	-4	1.6	x	x	x
O=c1oc2ccccc2n1Cn1c(=O)oc2ccccc21	-6	1.0	2	-5%	-1
Cc1ccc2c(c1)C(c1ccccc1)CC(=O)O2 (centres undefined)	-4	-6.4	x	-4%	x

Next part (6 carried over from the part before).
SMILES	Mtb betalactam	RecA splice inh	YopH inh	Mtb growth	Arbovirus anti	others
Cc1ccccc1C(O)c1ccncc1 (centres undefined)	-4	1.6	-20	0%	-7
Cc1ccc(C)c(Cn2c(=O)n(CCCC(=O)NCc3ccco3)c(=O)c3ccccc32)c1	10	-3.8	0	1%	-17
O=C(/C=C/c1ccc2ccccc2n1)N1CCN(S(=O)(=O)c2ccc(F)cc2)CC1	-6	4.0	x	6%	x
O=C(CN(C(=O)c1csnn1)c1cccc2ccccc12)NCc1ccccc1	-4	1.6	x	x	x
O=c1oc2ccccc2n1Cn1c(=O)oc2ccccc21	-6	1.0	2	-5%	-1
Cc1ccc2c(c1)C(c1ccccc1)CC(=O)O2 (centres undefined)	-4	-6.4	x	-4%	x
CC1CCCN(CC(=O)c2ccc(Cl)c(Cl)c2)C1 (centres undefined)	-8	x	x	2%	3
Cc1cccc(C(=O)Nc2cccc(C(=O)N/N=C/c3ccccn3)c2)c1	-2	0.5	x	x	x
O=C(Nc1cccc(S(=O)(=O)N2CCCCC2)c1)c1ccc([N+](=O)[O-])o1	100	-2.6	x	u	-27
COc1cccc(CNC(=O)c2ccccc2NC(=O)C2=C(C)OCCS2)c1	-4	1.8	x	x	x
COCCNC(=S)Nc1ccc(S(=O)(=O)Nc2ncccn2)cc1	2	-2.4	x	10%	1
CCc1nnc(NC(=O)CSc2nnc3c(C)cc4c(C)ccc(C)c4n23)s1	10	-1.0	-9	-5%	-3
COc1ccc(S(=O)(=O)N2CCCCCC2)cc1C(=O)N(C)Cc1ccc(C(C)(C)C)cc1	-1	15	x	x	x
CCc1ccccc1NC(=O)CN(C)S(=O)(=O)c1ccc2c(c1)c(=O)n(C)c(=O)n2C	-3	-3.7	5	-1%	0
OCCCc1nc2n(n1)C(c1ccccc1)C=C(c1ccccc1)N2 (centres undefined)	-9	i	-3	2%	3	Arbovirus anti repeat=2
CC1(C)C(=O)C2(CCCCC2)C(=O)OC1c1cccc([N+](=O)[O-])c1 (centres undefined)	-2	x	-23	-5%	3
O=C(NCc1cn(-c2ccccc2)nc1-c1ccccc1)c1cccc([N+](=O)[O-])c1	0	4.7	1	10%	2
CCOc1cc(C(=O)Nc2cccc(C(C)=O)c2)ccc1OCC(=O)N1CCCCC1	14	2.2	x	-7%	22
CCC1(c2ccccc2)NC(=O)N(CC(=O)NCc2ccccc2OC)C1=O (centres undefined)	-4	0.6	x	x	x
CC(C)(c1ccccc1)c1ccc(OCC2CO2)cc1 (centres undefined)	1	41*	x	x	x
CC(=O)Nc1ccc(NC(=O)c2nc(S(=O)(=O)Cc3cccc(C)c3)ncc2Cl)cc1	2	31*	x	x	x
Cc1noc(NS(=O)(=O)c2ccc(NC(=O)CSc3nc4c(cc3C#N)CCCC4)cc2)c1C	-3	x	x	-12%	22	Arbovirus anti repeat=6
CCOC(=O)Cn1cnc2c(nnn2-c2cccc(Cl)c2)c1=O	3	-3.0	x	x	x
CCN(c1ccc(C(O)(C(=O)OC)C(F)(F)F)cc1)S(=O)(=O)c1ccc(C)cc1 (centres undefined)	-14	2.7	-15	-23%	7
Cc1ccc(-c2nc(S(=O)(=O)c3ccc(C)cc3)c(SCC(=O)NCC3CCCO3)o2)cc1 (centres undefined)	6	12	x	x	x
O=[N+]([O-])c1ccc(Cl)c(NC(=S)N2CCCC2)c1	-6	-0.5	x	x	x
COc1ccc(NC2CCCN(C(=O)c3cn(C)c4ccccc34)C2)cc1 (centres undefined)	3	-1.3	x	x	x
Cc1ccc(OCC(=O)N2c3ccccc3CC2C)c([N+](=O)[O-])n1 (centres undefined)	0	-0.8	x	-5%	8
COc1ccccc1NS(=O)(=O)c1ccc2[nH]c(=O)[nH]c2c1	49	0.5	x	x	x
COc1ccc(Oc2nc3ccccc3n(C)c2=O)cc1	-9	1.2	-22	8%	-6
Cc1onc(-c2c(Cl)cccc2Cl)c1C(=O)NN1CCCCCC1	-1	1.8	x	0%	x
CO/N=C\CC(=O)Nc1ccc(Oc2ccccc2)cc1	0	-0.2	x	u	-7
Cc1nc2c(=O)[nH]c3ccccc3c2o1	-6	x	x	-3%	-4
COc1ccc(CCNC(=O)Cc2ccc(OCc3ccccc3)c(OC)c2[N+](=O)[O-])cc1OCc1ccccc1	-5	2.8	-9	x	8
O=C(O)CCC(=O)N1CCN(c2nc(-c3ccccc3)c3ccccc3n2)CC1	6	-49	x	x	x
CN(CC(=O)Nc1ccc(N2CCOCC2)cc1)C(=O)c1cccc(Cl)c1Cl	-10	-1.1	x	x	x
CC(C)CCNC(=O)C1CCC(CNS(=O)(=O)c2ccc(Cl)cc2)CC1 (centres undefined)	0	2.4	x	x	x
O/N=C/c1cn(-c2ccccc2)nc1-c1cccnc1	2	0.2	x	-6%	23
C=CCNC(=O)c1ccc2c3n(nc2c1)-c1ccc(Cl)cc1CO3	1	1.1	x	17%	x
CCOC(=O)c1nc2ccccc2c(=O)[nH]1	0	x	x	2%	x
COc1cccc(OCC(=O)NNC(=O)C(=O)N2CCCC2)c1	1	-3.0	-11	5%	4
CCCC(=O)Nc1cc(C)c2c(=O)oc3ccccc3c2n1	-5	1.9	x	5%	-9	Arbovirus anti repeat=-7
CCCCC(=O)NS(=O)(=O)c1ccc(N=NN2CCOCC2)cc1	-3	1.3	-8	3%	7
CCC(C)NC(=O)CC(c1ccc(OC)cc1)n1cccc1 (centres undefined)	-6	-0.1	-17	-2%	-4
CCOc1ccc(C2NC(=O)NC(c3ccccc3)=C2C(C)=O)cc1OC (centres undefined)	-3	2.4	x	x	x
CC(C)(C)C(=O)C[n+]1ccc(C(N)=O)cc1	-4	-2.6	-27	-8%	-11
CC(=O)Nc1ccc(SC(C)C(=O)NC(N)=O)cc1 (centres undefined)	-8	-1.5	-4	-1%	3
COC(=O)C(c1ccccc1)N(Cc1cccc(CN(C(C(=O)OC)c2ccccc2)S(C)(=O)=O)c1)S(C)(=O)=O (centres undefined)	-10	2.8	x	x	x
COc1ccc(CN2CCNC(=O)C2CC(=O)NC2CCCCCCC2)cc1C (centres undefined)	-3	4.7	x	x	x
CC1(c2nnc(-c3ccccc3)o2)CC(c2ccc(Cl)cc2)=NO1 (centres undefined)	16	7.8	x	-1%	x
COc1cc(C(=O)NC(C)C2CC3CCC2C3)cc(OC)c1OC (centres undefined)	-11	5.7	x	x	x
Cc1ccc(CSc2nnc(SCC(=O)N/N=C/c3c[nH]c4ccccc34)s2)cc1	x	7.7	x	11%	-20
OC[C@@H](O)CCl	-7	3.3	x	-7%	x
CC(C)CN(C(=O)CCC(=O)OCC(=O)c1ccc(F)c(F)c1)c1c(N)n(CC(C)C)c(=O)[nH]c1=O	-15	0.4	x	x	x
COc1ccccc1-n1cnnc1SC(C)C(=O)Nc1cccc([N+](=O)[O-])c1 (centres undefined)	4	7.1	-21	0%	-7
CCOC(=O)c1nnn2c1nc(SCC(C)=O)c1ccccc12	-10	4.8	x	1%	x
COc1ccc(OC)c(C(=O)c2ccc(C(=O)Nc3cccc4ccccc34)cc2)c1	1	1.8	-2	6%	-5
Cc1ccccc1N=C1NC(=O)/C(=C/c2cccnc2)S1	3	11	x	4%	x
Cn1ccnc1Sc1cc(NCCCO)c([N+](=O)[O-])c2nonc12	49	67*	x	3%	-27
Cc1ccc(NC(=O)CSc2nnc(Cc3ccccc3)c(=O)[nH]2)c(C)c1	-2	1.6	x	x	x
C1=C(c2ccccc2)N2CCN=C2S1	9	-1.1	-1	-2%	6
O=C(NNC(=S)NC(=O)c1ccccc1[N+](=O)[O-])c1ccccc1	45	-0.3	-9	0%	-6
c1ccc(C2CNCc3c2ccc2ccccc32)cc1 (centres undefined)	-2	0.1	-11	4%	-3
Cc1nnc(NC(=O)CSc2nnc(CNC(=O)c3ccccc3)n2-c2ccccc2)s1	3	0.3	-41	0%	-3	Arbovirus anti repeat=2
O=C(NC(C(=O)N/N=C/c1ccccn1)c1n[nH]c(=O)c2ccccc12)c1ccccc1 (centres undefined)	-7	-1.7	x	-7%	x
CCOC(=O)C1CCN(c2c(NCCN(CC)c3ccccc3)c(=O)c2=O)CC1	-8	-0.7	x	-8%	x

(cont.)
SMILES	Mtb betalactam	RecA splice inh	YopH inh	Mtb growth	Arbovirus anti	others
CCCCc1nnc(NC(=O)c2nc3nccc(C)n3n2)s1	-7	3.4	x	-9%	24
CCC(CC)C(=O)NCCc1ccc(S(N)(=O)=O)cc1	10	-2.4	10	-1%	6
Cc1sc2nc(SC3CCOC3=O)n(Cc3ccccc3)c(=O)c2c1C (centres undefined)	-1	3.2	x	-1%	2
CC1=C(C(=O)Nc2cccnc2)C(c2ccc3c(c2)OCO3)C2=C(CCCC2=O)N1 (centres undefined)	-6	11	-20	-6%	3
O=C(Nc1ccccc1F)c1c[nH]c(=O)[nH]c1=O	6	1.9	x	0%	x
O=C(Nc1nc(-c2ccccc2)cs1)c1ccc2c(=O)n3c(nc2c1)CCCCC3	10	0.2	5	5%	-8
CCOC(=O)C(=O)NCC(c1cccs1)S(=O)(=O)c1ccc(F)cc1 (centres undefined)	-10	-2.0	x	x	x
O=C(Cc1ccc(Cl)cc1)Nc1ccccc1C(=O)N1CCCC1	-1	-0.3	x	x	x
CC(C)(C)C(=O)c1cnc(Nc2ccccc2)s1	-7	2.8	-16	4%	2
CCC(Sc1ccc(C(=O)O)cc1)C(=O)O (centres undefined)	-5	0.7	-6	-1%	-6
COc1ccccc1-c1cc(C(F)(F)F)nc(N2CCN(c3ccc(F)cc3)CC2)n1	6	0.5	14	-8%	15
COCCN(Cc1cc2ccc(C)cc2[nH]c1=O)S(=O)(=O)c1ccccc1	5	-1.6	x	x	x

Screens: PubChem, several laboratories
